# Vaccinia Venus: vaccinia inhibition (Venus reporter); 0.46% of 330,000 active; Potency, µM (top dose mostly 36.5 µM), inactives show at the highest dose activity change, negative = inhibition, most hits filed as inhibitors; AID 720580; Vaccinia virus Venus reporter expression, fluorescence; active means well fitted inhibition curve with a large enough effect; inconclusive means small, poorly fitted or top-dose-only effect; inactive means no such curve, though single readings can be large or run the other way; tested in A549 cells; note: nearly all actives have a fitted effect of over 30% in size; inactives centre near -10
# Vaccinia mCherry: inhibitors of vaccinia virus infection (mCherry reporter signal). Potency, µM (highest dose often 36.5 µM), for inactives: at the highest dose activity change, negative = inhibition, most hits filed as inhibitors. 0.63% of 310,000 active. Vaccinia virus mCherry reporter infection, fluorescence; about a quarter of the inactives have no number; active = well fitted inhibition curve with a large enough effect; inconclusive = small, poorly fitted or top-dose-only effect; inactive = no such curve, though single readings can be large or run the other way; tested in A549 cells; note: nearly all actives have a fitted effect of over 35% in size; inactives centre near -10
# * = called active by the depositor; i = inactive; ? = inconclusive; · = no result given; & = joins results of further samples; [ ] = another dose, or the depositor's remark. % is set by controls: 0 for no effect and ±100 for the full control effect; potency is the fitted concentration of half-maximal effect. Outcome played no part in choosing rows; about 0.87% have a hit in one of these screens.
SMILES,Vaccinia Venus,Vaccinia mCherry
CCOC(=O)C1CCCN(C2CC(=O)N(c3ccc(C(C)C)cc3)C2=O)C1 (centres undefined),-7%,i
O=C(Nc1ccccc1O)c1ccc(NC(=O)C2CC2)cc1,-25%,-25%
Cc1ccc(OCC(=O)Nc2ccc(S(=O)(=O)Nc3ccccn3)cc2)cc1C,-10%,-16%
O=C(Cc1cc(=O)[nH][nH]1)N/N=C/c1c(Cl)cccc1Cl,-12%&-17%,-15%
Fc1cccc(C2CCCCN2Cc2nc(C3CC3)no2)c1 (centres undefined),-6%,-3%
CC1CC(C)CN(C(=O)CSc2nnc(-c3ccco3)o2)C1 (centres undefined),3%,40%[activator]
CCCC(C)C1(CC)C(=O)NC(=O)NC1=O (centres undefined),-11%,-21%
Cc1ccc2c(c1)C(=O)c1ccccc1CS2=O (centres undefined),-4%,i
Cc1ccc(-n2cnc3cc(C(=O)NC4CCCCCC4)ccc32)c(C)c1,-3%,-11%
CC(=O)c1c(C)[nH]c(C(=O)OCC(=O)N(C)C)c1C,-14%,0%
CCCCCCCCN1C(=O)[C@H](CC(=O)NCC23CC4CC(CC(C4)C2)C3)C[C@@]2(C(=O)OC)CCCCC=C12,-12%,9%
O=C(CCCn1c(=O)c2ccccc2n(Cc2cccc(F)c2)c1=O)NCc1ccccc1Cl,0%,i
O=C(NCc1ccco1)c1ccc(Cn2c(SCc3ccccc3F)nc3cccnc32)cc1,-15%,-6%
CCN1C[C@@H]2[C@@H]3C(=O)N(Cc4ccccc4)C(=O)[C@@H]3[C@](C)(C1=O)N2C(=O)c1ccc(Cl)cc1,-11%,i
Cc1cc(C)c(NC(=O)Cn2c(=O)n(Cc3ccc(C(=O)NCc4ccco4)cc3)c(=O)c3sccc32)c(C)c1,-4%[7.34 µM],0%[7.34 µM]
CC(=O)N1C[C@@H](CO)[C@@H](N(C)C(=O)c2ccco2)C[C@H]1c1ccccc1,1%,13%
Cc1noc(C)c1NC(=O)Nc1cccc2c1O[C@@H](CN(C)C)[C@@H](C)CN([C@H](C)CO)C2=O,-3%,i
O=C(Nc1cccc(C(=O)OCc2cc(=O)n3nc(C4CC4)sc3n2)c1)c1cccc(Cl)c1,?,?
CCOC(=O)Cc1ccc(Nc2nc(NCc3cccs3)nc3ccsc23)cc1,-12%,i
CCOC(=O)c1cnc(SCC(=O)Nc2nnc(CC)s2)nc1N,1%,-13%
C=C(C)COc1ccc(-c2n[nH]c(C)c2-c2ccccc2)c(O)c1,?,·
CN(C)c1ccc(P(=O)(OCc2ccccc2)C(O)c2ccccc2)cc1 (centres undefined),-4%,-5%
CC(C)C(=O)Nc1c(-c2ccccc2)c(=O)c2ccccc2n1C,-6%,i
Cc1ccc(Cn2c(CNC(=O)c3ccc(Cl)c([N+](=O)[O-])c3)nc3cccnc32)cc1,-9%,-12%
O=C(Nc1ccncc1)Nc1cc(Cl)ccc1Cl,-21%,-21%

# Another view of part of the listing above.
# Second line of a record: Vaccinia Venus | Vaccinia mCherry
- Cc1ccc2c(c1)C(=O)c1ccccc1CS2=O (centres undefined)
→ -4% | i
- Cc1ccc(-n2cnc3cc(C(=O)NC4CCCCCC4)ccc32)c(C)c1
→ -3% | -11%
- CC(=O)c1c(C)[nH]c(C(=O)OCC(=O)N(C)C)c1C
→ -14% | 0%
- CCCCCCCCN1C(=O)[C@H](CC(=O)NCC23CC4CC(CC(C4)C2)C3)C[C@@]2(C(=O)OC)CCCCC=C12
→ -12% | 9%
- O=C(CCCn1c(=O)c2ccccc2n(Cc2cccc(F)c2)c1=O)NCc1ccccc1Cl
→ 0% | i
- O=C(NCc1ccco1)c1ccc(Cn2c(SCc3ccccc3F)nc3cccnc32)cc1
→ -15% | -6%

# More compounds follow:
SMILES,Vaccinia Venus,Vaccinia mCherry
O=C(C[n+]1ccc(-c2nnc3n2CCC3)cc1)c1ccc(Cl)c(Cl)c1,-4%,i
CC(=O)c1c(NC(=O)c2ccccc2)[nH]c(-c2ccccc2)nc1=S,5%,-8%
NC(=O)COC(=O)/C=C/c1ccc2ccccc2n1,-12%,-6%
Nc1nonc1-c1nc2ccccc2n1CC(=O)Nc1ccccc1C(=O)O,3%,-2%
COc1ccc(C(=O)COc2ncnc3cc(Cl)ccc23)cc1,-10%,-12%
CCN(C[C@H]1N[C@@](C)(C(=O)OC)[C@H]2C(=O)N(Cc3ccccc3)C(=O)[C@@H]12)C(=O)c1ccc(F)cc1,1%,-24%
COc1cc(/C=N/NC(=O)c2ccc(-c3ccccc3)cc2)cc(OC)c1OC,?,5.6µM*
N#C/C(=C\c1ccncc1)c1nc2c(s1)CCCC2,-15%,26%
N#CC1(NC(=O)CN2C(=O)c3ccc([N+](=O)[O-])cc3C2=O)CCCCC1,-10%,i
Cc1nc2[nH]c(=O)n(O)c(=O)c2s1,2%,-8%
C=CCNC(=O)/C(=C\c1cccc([N+](=O)[O-])c1)NC(=O)c1ccccc1,-29%,-28%
COc1cc(N2N=C(c3ccccc3)CC2c2ccccc2)c(C=O)cc1C=O (centres undefined),-9%,i
CC(C)(C)OC(=O)N1CCc2onc(-c3ccc([N+](=O)[O-])cc3)c2C1=O,-21%,7%
Cc1c(C(=O)Nc2ccc(F)c(C(F)(F)F)c2)sc2nc(-c3ccccc3)cn12,?,-24%
CN(C)CCNc1ncnc2c1ncn2[C@H]1CN(Cc2cccnc2)C[C@@H](CO)O1,-3%,-5%
CC(C)N1OC2CC1c1nc3ccccc3n1C2 (centres undefined),-4%,i
Cc1ccc(C(NC(=O)c2ccccc2S(C)(=O)=O)c2ccccc2)cc1 (centres undefined),-5%,-28%
CCOc1ccc(C(=O)NNC(=O)CN2C(=O)NC3(CCCC3)C2=O)cc1,-1%,-14%
Cc1cccc(CNC(=O)c2cnc3sc(N4CCOCC4)nn3c2=O)c1,-6%,i
O=C(N/N=C/c1ccco1)c1cccc(NC(=O)c2ccccc2Cl)c1,17%,-21%
COCCNC(=O)Cn1c(=O)n(CCCCCC(=O)NCc2ccc3c(c2)OCO3)c(=O)c2sccc21,-10%,-11%
CC(c1ccccc1)C(NC(=O)OCC1c2ccccc2-c2ccccc21)C(=O)O (centres undefined),-7%,-13%
CN(Cc1ccccc1)C(=O)c1ccc(NC(=O)Cc2cccc(NC(=O)C3CCN(C(=O)C4CCC4)CC3)c2)cc1,-14%,-11%
CCN1CCN(CCC(=O)Nc2cccc(OC)c2)CC1,-9%,-10%
Cc1noc(C)c1C(=O)NC(C)c1ccc2c(c1)OCO2 (centres undefined),2%,-10%
SMILES,Vaccinia Venus,Vaccinia mCherry
Cc1[nH]c2ccccc2c1/C=C(/C#N)C(=O)NC(C)C,-11%,-11%
COc1ccc(N2CCN(S(=O)(=O)c3ccc4c(c3)NC(=O)C(C)C(=O)N4)CC2)cc1 (centres undefined),-19%,i
CCOC(=O)C1=C(CN2CCN(CC)CC2)NC(=O)NC1c1ccc(Cl)cc1 (centres undefined),-5%,-20%
CCOC(=O)CC1COc2ccccc2N1C(=O)c1cccc([N+](=O)[O-])c1 (centres undefined),-4%,-22%
O=C(CCCl)Nc1nc2c(s1)CCc1ccccc1-2,5%,?
CCOC(=O)c1sc2nc(C)nc(Nc3ccccc3)c2c1C,-6%,-15%
O=C1NCN(c2ccccc2)C12CCN(C(c1ccccc1)c1nnnn1-c1ccc3c(c1)OCCO3)CC2 (centres undefined),-7%,15%
COc1ccc(NS(=O)(=O)c2ccc(O)c(C(=O)OCC(=O)N3CC(C)OC(C)C3)c2)cc1 (centres undefined),-26%,·
N#Cc1nc(-c2ccccc2)oc1NCCN1CCCCC1,-1%,-9%
CN(C)c1nc(-c2cccnc2)nc(-c2ccc(Cl)cc2)c1C#N,2%,i
CC(=O)Nc1sc(C)c(C)c1C(=O)OCC(=O)Nc1ccccc1C(F)(F)F,-14%,-15%
O=C(Nc1cccc(Cl)c1Cl)c1csc([C@H]2C[C@H](O)[C@@H](CO)O2)n1,-11%,-9%
CNC(=O)Nc1ccc(S(N)(=O)=O)cc1,-4%,-10%
O=C(Nc1ccc(F)cc1)Nc1cnccn1,-15%,-1%
COc1cccc2c(C)c(C(=O)O)[nH]c12,-2%,-2%
O=C(NC1=CC(=O)c2ccccc2C1=O)c1ccccc1,-30%,7.9µM*
O=c1[nH]c(S)nc2sc3c(c12)CCCC3,-13%,-12%
CCCc1[nH]nc2c1C(c1ccoc1)C(C#N)=C(N)O2 (centres undefined),-21%,-8%
O=C(c1[nH]c(C(F)(F)F)nc1-c1ccccc1)N1CCN(C/C=C/c2ccccc2)CC1,-13%,i
CC(C)CN(CC(C)C)CC(O)COc1ccc([N+](=O)[O-])cc1 (centres undefined),-9%,i
Cc1nnc2c3ccccc3c(-c3cccs3)nn12,-10%,3%
CCn1c(SCC(=O)NC(=O)c2ccccc2OC)nc2ccccc21,-14%,-16%
COc1ccc(OC)c(NC(=O)c2ccc(-c3cccs3)cc2)c1,0%,i
Nc1c(C(=O)Nc2ccc(OC(F)(F)F)cc2)nnn1Cc1ccccc1,16%,14%
O=C(Nc1ccnn1C1CCN(Cc2cccc(OCCO)c2)CC1)c1cccc(F)c1,-17%,-5%
SMILES,Vaccinia Venus,Vaccinia mCherry
O=C(Cc1ccc(NC(=O)C2CCCN(C(=O)CCc3ccccc3)C2)cc1)Nc1cccc(C(=O)N2CCCC2)c1 (centres undefined),-12%,?
O=C(NCc1ccco1)C(=O)NCc1ccccc1Cl,-10%,-20%
CC(C)(C)[C@H]1CCC(=O)N([C@H](CSc2ccc(Br)cc2)Cc2ccccc2)CC1,-25%&-2%,-2%
Cc1ccc(N/C=C/C(=O)c2ccccc2)cc1C,-2%,-16%
CCCn1cnc2cc(NC(=O)c3cccs3)ccc21,-14%,-10%
C[C@]12CC[C@@H](O)C[C@@H]1CC[C@@H]1[C@@H]2CC[C@]2(C)C(=O)CC[C@@H]12,-16%,-14%
CCN(CC)S(=O)(=O)c1ccc(N)cc1,-2%,9%
COCC(C)n1c(C)cc(C(=O)COC(=O)c2nn(C)c(=O)c3ccccc23)c1C (centres undefined),-8%,i
C[C@]12CCC(=O)C=C1C=C[C@@H]1[C@@H]2CC[C@@]2(C)[C@H]1CC[C@@]21CCC(=O)O1,-19%,-16%
CN1C(=O)c2ccc(C(=O)Nc3cccnc3)cc2C1=O,6%,i
COc1cc2c(=O)n(Cc3ccccc3)c(=O)n(CC(=O)Nc3cc(C(F)(F)F)ccc3Cl)c2cc1OC,-19%,?
CCNC(=O)C1(C)CCCN(Cc2cccc3ccccc23)C1 (centres undefined),-11%,-3%
CCn1cc(C(=O)N[C@H](C(=O)NCCCN2CCOCC2)C(C)C)c(=O)c2cc3c(cc21)OCO3,-16%,i
COC(=O)COc1ccc(S(=O)(=O)N2CCOCC2)cc1,-7%,i
O=C(Cc1cn2ccsc2n1)OCc1ccccc1,18%,·
CCOc1ccccc1NC(=O)CSc1nccn1-c1cccc(C)c1,-10%,-10%
CCC(C(=O)OCC(=O)Nc1cccc(C(C)=O)c1)c1ccccc1 (centres undefined),-17%,i
CCC1S/C(=N/N=C/c2cccs2)NC1=O (centres undefined),-17%,-22%
CC(C)C1Oc2ccccc2N(CC(=O)N(C)C2CCCCC2)C1=O (centres undefined),-5%,-12%
CC(C)c1nc(SCc2ccccn2)c2c(=O)n(C)c(=O)n(C)c2n1,-27%,?
CC(=O)Nc1ccc(Cl)cc1C1COC(=O)C1=N (centres undefined),-10%,i
COc1cc(=O)[nH]c(SCC(=O)Nc2nc3c(s2)CCCC3)n1,-10%,-14%
CCC(=O)NNc1ncnc2c1cnn2-c1cccc(C)c1,-6%,i
CCCCNC(=O)c1nn2c(C(F)(F)F)cc(-c3ccc(OC)cc3)nc2c1Br,-4%,-6%
O=C(O)CCCC(=O)N1N=C(c2c(-c3ccccc3)c3cc(Cl)ccc3[nH]c2=O)CC1c1cccs1 (centres undefined),-11%,i

# A draw from above in order of length of the SMILES, high to low:
SMILES,Vaccinia Venus,Vaccinia mCherry
CCN(C[C@H]1N[C@@](C)(C(=O)OC)[C@H]2C(=O)N(Cc3ccccc3)C(=O)[C@@H]12)C(=O)c1ccc(F)cc1,1%,-24%
COc1cc(/C=N/NC(=O)c2ccc(-c3ccccc3)cc2)cc(OC)c1OC,?,5.6µM*
O=C(Cc1cc(=O)[nH][nH]1)N/N=C/c1c(Cl)cccc1Cl,-12%&-17%,-15%

# Later entries:
SMILES,Vaccinia Venus,Vaccinia mCherry
Cc1nc(SCC(C)C)[nH]c(=O)c1Cc1ccccc1,?,-16%[1.46 µM]
O=[N+]([O-])c1ccc(Cl)c(S(=O)(=O)/N=C(/c2ccccc2)N2CCOCC2)c1,-1%,?
O=C(Cc1ccc(F)cc1)Nc1cc(S(=O)(=O)N2CCOCC2)ccc1N1CCCCC1,-3%,-1%
CCc1nnc(NC(=O)c2ccc(OC)cc2)s1,-4%,-13%
COC(=O)C1=C(c2ccc(F)cc2F)C[C@@H]2CC[C@H]1N2C(=O)NCc1ccc(F)cc1,-14%,i
COc1ccc(CC(=O)Nc2ccc(-c3cn4ccccc4n3)cc2)cc1,-15%,·
C[C@H](NC(=O)c1ccc(Br)cc1)C(=O)NCc1ccc(S(N)(=O)=O)cc1,-3%,i
O=C(NCCCCO)c1c(-c2ccccc2)oc2c1C(OCCCCCO)CCC2 (centres undefined),-7%,0%
Cc1ccc(C(=O)Nc2ccc(-n3c(C)nc4ccccc4c3=O)cc2)cc1[N+](=O)[O-],-18%,-10%
CN(c1ccc(C(=O)NCc2ccncc2)cc1)S(=O)(=O)c1ccc(Cl)cc1,-13%,-21%
